Bioassay records from PubChem BioAssay.
KCNQ2 enhance – KCNQ2 (rat) channel potentiation | O88943 | CHO-K1 KCNQ2, FluxOR thallium flux fluorescence; hits give high values | B-score at 10 µM | 310,000 tested, 0.54% active;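 active = fluorescence ratio B-score at least 3 SD of library B-scores, with initial fluorescence B-score within 3 SD, cut at about 5.3 in these data; same plate scores as AID 2156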;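 note: B-score of peak minus minimum over baseline fluorescence ratio after K+ and Tl+ stimulus; positive B-score means potentiation of KCNQ2 with more thallium influx and brighter signal; only the inactives scoring about 0 or higher are listed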
Target sequence (O88943 whole entry, looked up): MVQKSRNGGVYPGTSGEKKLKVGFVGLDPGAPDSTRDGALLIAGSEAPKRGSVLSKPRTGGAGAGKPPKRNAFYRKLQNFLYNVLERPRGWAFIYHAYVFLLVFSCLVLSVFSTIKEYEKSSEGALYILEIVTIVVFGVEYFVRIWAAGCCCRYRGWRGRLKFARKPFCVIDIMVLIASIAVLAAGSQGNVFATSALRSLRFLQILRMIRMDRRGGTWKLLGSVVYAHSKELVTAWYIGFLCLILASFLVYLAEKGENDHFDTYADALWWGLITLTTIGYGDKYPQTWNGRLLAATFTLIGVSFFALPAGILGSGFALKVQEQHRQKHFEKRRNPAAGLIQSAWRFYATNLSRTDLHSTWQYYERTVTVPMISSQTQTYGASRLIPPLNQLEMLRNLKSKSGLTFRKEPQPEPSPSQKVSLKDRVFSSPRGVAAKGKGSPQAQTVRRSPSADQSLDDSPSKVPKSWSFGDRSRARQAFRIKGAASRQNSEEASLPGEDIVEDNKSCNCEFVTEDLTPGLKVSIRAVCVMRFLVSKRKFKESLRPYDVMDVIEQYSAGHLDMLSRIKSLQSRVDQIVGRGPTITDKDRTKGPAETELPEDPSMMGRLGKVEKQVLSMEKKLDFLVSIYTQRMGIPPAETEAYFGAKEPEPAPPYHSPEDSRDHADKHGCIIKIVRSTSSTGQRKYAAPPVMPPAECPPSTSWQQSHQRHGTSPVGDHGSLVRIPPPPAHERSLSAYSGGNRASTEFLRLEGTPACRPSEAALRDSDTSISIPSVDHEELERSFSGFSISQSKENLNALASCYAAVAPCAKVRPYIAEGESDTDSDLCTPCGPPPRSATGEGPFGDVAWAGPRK
KCNQ2 enhance baseline – further read-out of KCNQ2 enhance, marked with its call; B-score; compound at 10 µM; measured here: initial fluorescence intensity artifact check;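 brightness before thallium and not channel activity; 0 = typical well and far values either way flag optical interference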
An asterisk follows results filed as active.

SMILES	KCNQ2 enhance	KCNQ2 enhance baseline
CN(C)c1ccc(C(C(=O)NCC2CCCO2)N(C(=O)c2snc(C(N)=O)c2N)c2ccccc2)cc1 (configuration not stated)	0.39	0
Cc1ccc(CCNC(=O)CN2CCN(Cc3ccccc3F)C2=O)cc1	0.32	1.19
Cc1ccc(OCCCC(=O)Nc2ccc(Br)cc2)cc1	0.55	0.37
S=c1[nH]c2ccccc2o1	0.92	-0.18
CC(=O)N1CCN(Cc2nc(C(c3ccccc3)c3ccccc3)no2)CC1	1.12	-2.31
CC(=O)c1ccccc1NC(=O)CCNC(=O)c1ccco1	0.24	2.1
COc1ccc(CC(=O)NNC(=O)c2ccoc2C)cc1OC	0.49	2.59
Cn1cnc2ccc([N+](=O)[O-])cc2c1=O	0.55	0.6
CCOC(=O)C1CCN(C(=O)c2sc3ncnc(N4CCC(C)CC4)c3c2C)CC1	1.14	0.64
Cc1cc(=O)n2nc(N3CCC(C(=O)NCC(C)c4ccccc4)CC3)sc2n1 (configuration not stated)	1.89	-0.6
CCN1C(=O)N(C)C2(c3ccccc3)N(C)C(=O)N(C)C12c1ccccc1 (configuration not stated)	0.51	0
Cc1cccc(N(CC(=O)NC(C)(C)C)C(=O)CCC(=O)Nc2nccs2)c1	0.65	-0.82

Some of the entries so far, in CSV form:
structure,KCNQ2 enhance,KCNQ2 enhance baseline
CC(=O)c1ccccc1NC(=O)CCNC(=O)c1ccco1,0.24,2.1
CCN1C(=O)N(C)C2(c3ccccc3)N(C)C(=O)N(C)C12c1ccccc1 (configuration not stated),0.51,0
Cc1ccc(OCCCC(=O)Nc2ccc(Br)cc2)cc1,0.55,0.37

(listing goes on)
SMILES	KCNQ2 enhance	KCNQ2 enhance baseline
CS(=O)(=O)N(CC(=O)Nc1cccc(F)c1)c1cccc([N+](=O)[O-])c1	1.94	0.1
CCCCOC(=O)C1=C(C)Nc2ncnn2C1c1ccc(OC)c(OC)c1OC (configuration not stated)	0.02	0.41
CC(=O)c1ccc(N2C(=O)[C@@H]3[C@H](C2=O)[C@H]2c4ccccc4C=NN2[C@@H]3C(C)=O)cc1	1.17	-1.49
C#CCOCCOCCOCCNc1nc(N2CCN(C(=O)[C@H]([C@@H](C)CC)n3cc([C@@H](N)Cc4ccc(O)cc4)nn3)CC2)nc(N2CCN(C(=O)[C@H](CCCCN)n3cc([C@@H](N)C(C)CC)nn3)CC2)n1 (some centres not stated)	0.22	-0.42
CC1(C)CC(=O)C2=C(C1)N(c1ccccc1)C(N)=C(C#N)C2c1cccnc1 (configuration not stated)	0.32	-1.12
O=C(CN1C(=O)NC2(CCCCC2)C1=O)NCc1cccs1	0.37	0.36
COc1nc(Nc2ccccc2F)nc(OC)n1	1.14	1.1
Cc1cccn2c(=O)c3cc(C(=O)NCCc4ccccc4)c(=N)n(Cc4ccco4)c3nc12	0.71	-0.14
COc1ccccc1OCc1nnc(SCC(=O)NCc2ccco2)n1-c1ccccc1	1.82	-0.07
Cc1ccc(C2=NN3C(C2)c2ccccc2OC32C(=O)Nc3ccccc32)cc1 (configuration not stated)	1.97	-0.59
O=C1CCCCCC1C1(O)C(=O)Nc2ccccc21 (configuration not stated)	0.02	-1.53
COc1cccc(C(=O)COC(=O)C2CC(=O)N(c3ccc(Oc4ccccc4OC)cc3)C2)c1 (configuration not stated)	0.52	-0.97
CCCCC(=O)NC(N1CCCCC1)C(Cl)(Cl)Cl (configuration not stated)	1.3	-0.62
O=C(Nc1nc(-c2ccc(-c3ccccc3)cc2)cs1)c1cc([N+](=O)[O-])ccc1N1CCOCC1	0.52	-1.29
COc1ccccc1-c1nc2n(n1)C(c1ccccc1Cl)C(C(N)=O)=C(C)N2 (configuration not stated)	1.65	0.15
Cc1ccccc1Nc1c(-c2ccncc2)nc2ccc(Cl)cn12	0.76	-1.45
O=C1c2ccccc2C(=O)N1Cc1nc(-c2ccncc2)no1	0.38	-0.09
CC(C)CCNC(=O)NC(=O)COC(=O)/C=C/c1cnc2ccccc2n1	1.09	2
CCOC(=O)CCNC(=O)CCc1nnc(CCCc2ccccc2)o1	0.8	1.83
C=CCC1(CC=C)CCCN1C(=O)CC1C(=O)NCCN1Cc1ccccc1OC (configuration not stated)	0.26	0.25
C=CCn1c(SCC(=O)Nc2cccc3ccccc23)nc(O)c(CC)c1=O	0.07	-0.02
COc1ccccc1CNC(=O)Cn1c(=O)oc2cc(Cl)ccc21	0.48	0.92
CC(=O)Nc1ccc2c(c1)nc1n2CCOC1	1.12	0.09
CC1(C)CC(=O)C=C(NNC(=O)c2ccccc2)C1	0.63	-0.04

Not a retest: an excerpt of the list.
SMILES	KCNQ2 enhance	KCNQ2 enhance baseline
CC(=O)Nc1ccc2c(c1)nc1n2CCOC1	1.12	0.09
CC1(C)CC(=O)C=C(NNC(=O)c2ccccc2)C1	0.63	-0.04

More records
SMILES	KCNQ2 enhance	KCNQ2 enhance baseline
O=C(NCC(=O)N1CCN(C(=O)c2ccco2)CC1)c1ccc(Br)cc1	1.03	0.92
CCCCCCOc1ccc(-c2ccc(C#N)cn2)cc1	1.09	1.22
O=C(CCC1CCCC1)NNC(=O)c1ccccc1O	0.18	-1.01
O=C(NCc1ccccc1)C12CC3CC(CC(Cl)(C3)C1)C2	1.2	0.66
CC(=O)Nc1ccc2c(c1)C(=O)N(c1cccc3ccccc13)C2=O	0.01	0.4
Cc1cc(NC(=O)C2CCN(S(=O)(=O)c3cnc[nH]3)CC2)ccc1Br	0.63	0.52
COc1ccc(OC)c(S(=O)(=O)N2Cc3ccccc3CC2C(=O)O)c1 (configuration not stated)	0.49	-1.25
CCN(CC)S(=O)(=O)c1cccc(NC(=O)COC(=O)CCc2nc3ccccc3s2)c1	0.22	0.27
COc1ccc(C(=O)c2ccccc2)c(OCC(=O)N(C)C)c1	0.01	2.36
c1ccc(CN2CCOCCOCCOCCOCCOCCOCC2)cc1	0.03	0.53
CC(C)OC(=O)c1cccnc1SCc1cc(=O)n2ccccc2n1	0.84	0.22
O=C(c1cccc([N+](=O)[O-])c1)N1CCN(C(=O)c2ccco2)CC1	0.81	-0.93
COc1ccc(C2/C(=C(/O)c3ccc4c(c3)CC(C)O4)C(=O)C(=O)N2CCCN2CCOCC2)cc1 (configuration not stated)	0.62	-0.36
Cc1ccc(-c2nc3ccccc3n2C)o1	1.22	-0.62
C=CC(C)(C)c1c(O)c(CC=C(C)C)c(O)c2c(=O)c3ccc(O)c(O)c3oc12	1.95	-0.03
Cc1oc(-c2ccccc2Cl)nc1CS(=O)(=O)CC(=O)NC1CCCC1	1.39	-1.26
Cc1cc(C)c(C)c(S(=O)(=O)N[C@@H](C)C(=O)OCc2cc(=O)n3cc(Br)ccc3n2)c1C	0.49	0.3
Cc1nc(N)c(C#N)c(-c2ccc3c(c2)OCO3)c1C	0.28	-2.23
COc1cccc(C(=O)Nc2cc(C(=O)NCc3ccc(C)cc3)ccc2N2CCC3(CC2)CC(c2ccccc2)=NO3)c1	1.84	-0.52
COc1ccc(Cl)cc1S(=O)(=O)Nc1noc2ccccc12	0.19	-1.54
Cc1c(CNC(=O)c2nn3c(c2Cl)NC(c2ccccc2)CC3C(F)(F)F)cnn1C (configuration not stated)	0.5	-0.23
Cc1cc(C)n2nc(CC(=O)NC3CCCCCCC3)nc2n1	0.82	-0.83
COc1ccccc1C(=O)N1CCCN(C(=O)c2ccccc2OC)CC1	0.29	1.97
NC(=O)c1ccccc1NC(=O)CCCN1C(=O)CCC1=O	0.81	-1.42
COc1ccc(NC(=O)CN(C)S(=O)(=O)c2ccc3[nH]c(=O)oc3c2)cc1	0.05	-1.09
CC(=O)N1c2ccc(S(=O)(=O)N3CCCCC3)cc2CC1C(=O)NCc1cccc(Cl)c1 (configuration not stated)	0.26	0.81
COc1ccccc1CN1CC(C(=O)NCCn2nc(C)cc2C)CCC1=O (configuration not stated)	0.45	-1.99
CCCOC(=O)c1ccc(NC(=O)c2cc(Cl)ccc2OC)cc1	1.2	0.71
CCN(CC)C(=O)Cn1c(=O)n(Cc2ccccc2Cl)c2c1c(=O)n(C)c(=O)n2C	0.21	-0.08
O=C(O)C1(c2ccccc2)CCC(Nc2ccccc2)C1 (configuration not stated)	0.15	0.74
Nc1cccc(S(=O)(=O)Nc2ccccc2)c1	0.56	-1.88
CCNC(=O)N1CCNC(=O)C1CC(=O)OC (configuration not stated)	0.06	-1.03
O=C(COC(=O)C1CCC1)c1c[nH]c2ccccc12	1.61	-0.14
CCN(CC)c1ncnc2c1cnn2Cc1ccc(Cl)cc1	0.51	-0.88
O=C(NCCS(=O)(=O)N1CCN(c2ccccc2)CC1)C1CC(=O)N(c2ccc(F)cc2)C1 (configuration not stated)	0.42	-0.32
CC(=O)Nc1ccc(NC(=O)CS(=O)(=O)c2cn(CC(=O)N3CCCCC3)c3ccccc23)cc1	0.51	-0.42
O=C(Nc1ccc(F)cc1)c1ccc2snnc2c1	0.6	0.1
O=c1cc(N2CCOCC2)[nH]c(=O)n1-c1ccc(Cl)cc1	1.97	0.11
C=Cc1ccc2c(c1)OCCOCCOCCOCCOCCO2	1.55	0
CCOc1cc(C(=O)NC(C)CCc2ccccc2)cc(OCC)c1OCC (configuration not stated)	0.32	-0.36
CC(C)(C)c1ccc(S(=O)(=O)N2CCN(C(=O)C3CCC3)CC2)cc1	1.88	-1.69
CCOc1cc2c(cc1OCC)C(c1ccc(OC)c(OC)c1)N(c1ccc(C(=O)O)cc1)C(=O)C2 (configuration not stated)	1.49	0.39
C/C(=C\C=C\c1ccccc1)C(=O)c1c(C)cc(C)[nH]c1=O	1.55	-0.37
C=CCN(c1ccc(Cl)cc1)S(=O)(=O)c1cccc(C(=O)OCC(=O)N(C)C)c1	2.59	-0.03
O=c1c2c3c(sc2nc(NCCOCCO)n1Cc1ccco1)CCCCC3	5.57*	-0.53*
Cc1ccc(F)cc1NC(=O)C1CC(=O)N(CCc2ccccc2)C1 (configuration not stated)	0.08	0.37
Cc1cc(C)nc(NS(=O)(=O)c2ccc(NC(=O)Cc3ccccc3)cc2)n1	0.12	-2.06
Cc1c(C(=O)O)cc(C(C)(C)C)n1CCSCCO	0.15	-1.42

A second format for 5 compounds above.
Molecule,KCNQ2 enhance,KCNQ2 enhance baseline
COc1ccc(OC)c(S(=O)(=O)N2Cc3ccccc3CC2C(=O)O)c1 (configuration not stated),0.49,-1.25
CCN(CC)S(=O)(=O)c1cccc(NC(=O)COC(=O)CCc2nc3ccccc3s2)c1,0.22,0.27
COc1ccc(C(=O)c2ccccc2)c(OCC(=O)N(C)C)c1,0.01,2.36
c1ccc(CN2CCOCCOCCOCCOCCOCCOCC2)cc1,0.03,0.53
CC(C)OC(=O)c1cccnc1SCc1cc(=O)n2ccccc2n1,0.84,0.22

Next results.
SMILES	KCNQ2 enhance	KCNQ2 enhance baseline
CCOCCn1c(CN2CCN(C(=O)c3ccco3)CC2)nc2c1c(=O)n(C)c(=O)n2C	0.42	0.59
COc1cc(C(=O)NCC(C)C)cc(OC)c1OC	0.02	-0.43
COc1cccc(Nc2n[nH]c(=S)s2)c1	0.06	0.04
COCCCN1C(=O)C(=O)/C(=C(/O)c2ccc(S(=O)(=O)N3CCCCC3)cc2)C1c1ccc(OC)cc1 (configuration not stated)	0.38	-0.01
CC1CCN(c2cc(N(C)CCO)c([N+](=O)[O-])c3nonc23)CC1	0.99	-3.51
Cc1noc(C)c1COc1ccc(CC(=O)NCc2ccccc2)cc1	0.38	-0.52
CCCCC(CC)CNC(=O)CN(C)S(=O)(=O)c1cccc2nsnc12 (configuration not stated)	1.4	-2.08
Cc1ccccc1CN1CCCC(C(=O)N2CCCCC2)C1 (configuration not stated)	2.18	0.57
O=C1CSC(c2ccccc2F)N1c1ccccc1F (configuration not stated)	0.05	-0.12
CN(CC(=O)Nc1ccc(Cl)c(C(F)(F)F)c1)Cc1cc(=O)n2ccsc2n1	0.91	-0.31
CCCCNC(=O)c1ccc(-n2c(=S)[nH]c3ccccc3c2=O)cc1	0.24	-1.8
N#CC(C#N)C(c1ccsc1)c1c(-c2ccccc2)[nH][nH]c1=O (configuration not stated)	0.78	-0.54
CCc1cc(-c2n[nH]c(=S)n2C(C)c2ccccc2)cs1 (configuration not stated)	1.95	0.44
COC(=O)c1ccc(CN2CCN(CC=C(C)C)C(CCO)C2)cc1 (configuration not stated)	0.02	1.04
CCCc1nc2nc(C)c(NS(=O)(=O)c3ccc(C4CCCCC4)cc3)c(=O)n2[nH]1	1.13	0.23
COC(=O)c1ccc(CN2C(=O)NC(c3ccccc3)(c3ccccc3)C2=O)o1	3.24	0.09
CCC(=O)NC(=S)NNC(=O)c1ccc(NC(=O)c2ccccc2)cc1	1.11	-1.8
CN1CCN(c2cc(C(F)(F)F)nc(-c3ccccn3)n2)CC1	0.86	0.02
O=C(Nc1ccc(Cl)cc1)NC1CCCCC1	1.13	-1.63
CC(C)NC(=O)COc1coc(CN2CCN(C(=O)c3ccco3)CC2)cc1=O	0.39	1.78
Cc1cccc(-c2cccc(NC(=O)C3CCCN(C(=O)c4cccnc4)C3)c2)c1 (configuration not stated)	0.67	0.9
CCOC(=O)c1c(C)n(C)c2ccc(OCCN(C)C)cc12	1.63	-0.57
Cc1ccc(CNC(=O)CCNC(=O)c2ccc(Br)o2)cc1	0.03	0.02
NC(=O)c1cc(-c2ccccc2)nc(Oc2ccccc2)n1	1.16	0.5
O=C(CCN1C(=O)C2CCCCC2C1=O)NNC(=O)c1cccc(Cl)c1 (configuration not stated)	0.27	0.98
CC(=O)Nc1cccc(NC(=O)CSc2nc(=O)n(CCN3CCOCC3)c3c2CCC3)c1	0.34	-0.72
O=C(Nc1ccccc1)C1CC(=O)N(C2CCCCC2)C1 (configuration not stated)	0.35	1.21
O=C(CSc1nc(-c2ccc(F)cc2)cs1)N1CCOCC1	2.01	-1.59

Only part of the results is shown; the hit share may differ from the screen's.
